Source: PubChem BioAssay
RecA splice inh = inhibitors of M. tuberculosis RecA intein splicing; 0.75% of 290,000 active; cell-free RecA intein splicing, fluorescence; P9WHJ3; inhibition, %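 (about 9 µM by stock and volumes)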; in the data active = inhibition above about 30%; inconclusive = no clear call, values can overlap the other calls;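 also: 0% = vehicle wells and 100% = reference inhibitor control wells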
Target sequence (P9WHJ3 whole entry, looked up, canonical isoform): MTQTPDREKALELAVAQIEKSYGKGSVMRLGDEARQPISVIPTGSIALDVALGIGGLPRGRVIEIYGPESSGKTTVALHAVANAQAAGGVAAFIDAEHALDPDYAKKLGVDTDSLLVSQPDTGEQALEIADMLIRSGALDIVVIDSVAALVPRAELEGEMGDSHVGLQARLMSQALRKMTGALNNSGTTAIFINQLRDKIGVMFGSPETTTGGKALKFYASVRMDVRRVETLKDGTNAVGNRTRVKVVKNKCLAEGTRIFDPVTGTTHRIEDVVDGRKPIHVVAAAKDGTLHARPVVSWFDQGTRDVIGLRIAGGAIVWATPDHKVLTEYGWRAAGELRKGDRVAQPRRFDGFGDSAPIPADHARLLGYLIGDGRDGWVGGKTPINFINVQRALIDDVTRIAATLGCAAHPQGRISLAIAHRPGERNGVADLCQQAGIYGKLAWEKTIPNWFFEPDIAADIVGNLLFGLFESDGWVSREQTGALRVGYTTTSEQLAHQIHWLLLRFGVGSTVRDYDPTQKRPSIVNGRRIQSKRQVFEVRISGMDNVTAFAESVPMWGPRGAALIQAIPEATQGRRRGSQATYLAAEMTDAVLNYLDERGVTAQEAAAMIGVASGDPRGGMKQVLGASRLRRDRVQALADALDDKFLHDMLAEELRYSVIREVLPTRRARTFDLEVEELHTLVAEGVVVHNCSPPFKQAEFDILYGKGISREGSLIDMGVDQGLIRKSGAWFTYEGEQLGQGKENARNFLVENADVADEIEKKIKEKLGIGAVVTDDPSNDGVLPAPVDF
YopH PTP inh = blocks Yersinia enterocolitica YopH tyrosine phosphatase; fluorescence Ex485/Em525; inhibition, %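 (about 10 µM by stock and volumes)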; 0.16% of 140,000 active;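 active = inhibition of 50% or more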;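 also: controls were vehicle for no effect and minimum signal wells for full effect; inactives centre near -20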
Arbovirus anti = arbovirus infection inhibition; inhibition, % at 10 µM; arbovirus infection cell-based antiviral screen; 0.37% of 200,000 active;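 active = inhibition from about 30%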;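 also: bluetongue infection of BSR cells; cell survival read as ATP light after 72 h; 0% = infected wells without compound and 100% = uninfected wells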
Mtb H37Rv = M. tuberculosis H37Rv growth inhibitors, H37Rv strain (AID 1626); inhibition, % at 10 µM, or IC50 in µM where a hit was titrated; 0.95% of 220,000 active; M. tuberculosis H37Rv growth inhibition; higher % means a stronger effect;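 active = confirmed in a dose series; inconclusive = inhibition above 80% but not taken into the dose series; inactive = below 80% or under 30% at every dose of the series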;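 also: bacteria incubated seven days before Alamar blue readout; 0% = bacteria only wells and 100% = bacteria with antibiotic wells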
Mtb bLac sens = beta-lactam sensitization of Mtb H37Rv. M. tuberculosis H37Rv growth with meropenem, percent inhibition; hits of this screen are not shown here. inhibition, % at 25 µM. 0.27% of 330,000 active. AID 434955;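 active = about 74% or more and at least 40 points above the plate without the antibiotic, then above 30% in a dose series; inconclusive = first-round hits that could not be retested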;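 also: growth measured after seven days incubation then overnight dye step; 0% = bacteria only wells and 100% = bacteria with antibiotic; twin plates without the antibiotic show which effects depend on it; some results filed as inactive read as strong as hits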
Arbovirus anti repeat = further read-out of Arbovirus anti, marked with its call; inhibition, %; measured here: 10K subset replicate screen; many hits read low in the repeat;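 first of two repeat runs on a subset; 0% = infected and 100% = uninfected wells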
Active calls of the source: *; ? = inconclusive; nt = not tested or not shown. This is a subset; rates above refer to the full screens.

SMILES	RecA splice inh	YopH PTP inh	Arbovirus anti	Mtb H37Rv	Mtb bLac sens	others
CCC(C(=O)NC(C)(C)C)N(Cc1ccco1)C(=O)CNS(=O)(=O)c1ccc(OC)cc1 (centres undefined)	-7.3	nt	nt	nt	-5
O=C(OCc1nc2ccccc2s1)c1ccccc1O	6.1	nt	0	17%	96
Cc1ccc(NC(=O)COC(=O)c2ccc(Cl)cc2)cc1S(=O)(=O)N(C)C	nt	nt	4	3%	3
CN1CCC/C1=C1/C(=O)N(c2ccccc2)N=C1NC(=O)Nc1cccc(Cl)c1	1.4	nt	-3	-1%	-2
O=C(CSCc1cccc(Cl)c1)NCc1ccc2c(c1)OCO2	2.2	-10	-2	-4%	-4
Cc1ccc(S(=O)(=O)NCC(=O)Nc2cccc([N+](=O)[O-])c2)cc1	-1.0	nt	7	5%	1
CSCCC(NS(=O)(=O)/C=C/c1ccccc1)C(=O)O (centres undefined)	1.0	nt	15	-4%	-6
c1ccc2c(c1)OCCOCCOc1ccccc1OCCOCCO2	-1.4	4	16	1%	3
c1ccc(CCNc2ncnc3scc(C4COc5ccccc5O4)c23)cc1 (centres undefined)	24	-12	-22	6%	12
CCN(CC)C(=O)C(=O)N/N=C/c1ccc(C(=O)OC)cc1	-4.7	-37	-7	8%	4
COc1ccc(C2CC(O)(c3ccccc3)Oc3cc(OC)c(OC)c(OC)c32)cc1 (centres undefined)	6.2	nt	nt	3%	6
c1ccc2c3c([nH]c2c1)C1(CCCCC1)NCC3	0.3	nt	-2	-3%	0	Arbovirus anti repeat=-2
CCOC(=O)c1ccccc1NC(=O)COC(=O)CSCC(=O)Nc1cc(C)on1	-4.4	nt	nt	nt	-2
O=C(O)CCCCCNC(=O)/C=C/c1ccco1	6.0	nt	1	-13%	-2
O=S(=O)(c1cc(Cl)ccc1Cl)n1ccnc1	nt	nt	4	-6%	nt

Of the compounds above, these have a halogen:
SMILES	RecA splice inh	YopH PTP inh	Arbovirus anti	Mtb H37Rv	Mtb bLac sens	others
Cc1ccc(NC(=O)COC(=O)c2ccc(Cl)cc2)cc1S(=O)(=O)N(C)C	nt	nt	4	3%	3
CN1CCC/C1=C1/C(=O)N(c2ccccc2)N=C1NC(=O)Nc1cccc(Cl)c1	1.4	nt	-3	-1%	-2
O=C(CSCc1cccc(Cl)c1)NCc1ccc2c(c1)OCO2	2.2	-10	-2	-4%	-4
O=S(=O)(c1cc(Cl)ccc1Cl)n1ccnc1	nt	nt	4	-6%	nt

(continued)
SMILES	RecA splice inh	YopH PTP inh	Arbovirus anti	Mtb H37Rv	Mtb bLac sens	others
COC(=O)Cn1c(CN2CCN(c3ccc(F)cc3)CC2)nc2c1c(=O)n(C)c(=O)n2C	0.9	-28	3	30%	-8	Arbovirus anti repeat=0
CCN(Cc1ccccc1)S(=O)(=O)c1c(C(=O)N2CCCC2)c(C)n(C)c1C	-3.1	nt	nt	nt	0
COCCNc1oc(-c2ccc(F)cc2)nc1C#N	1.0	-27	5	-7%	-10
COc1ccccc1C1CN=NC12CCCc1ccccc1C2=O (centres undefined)	15	-30	0	-3%	-10
CC(C)/C=N/Nc1nc(-c2ccc(Br)cc2)cs1	3.6	-33	15	76%	98
C=C(C)CSc1nc(N)cc(=O)[nH]1	-2.5	-15	0	-1%	-11
OC1(c2ccc(F)cc2)CC2CCC(C1)N2Cc1nnnn1C1CCCC1 (centres undefined)	0.8	-1	10	-6%	0
COCC(C)NCc1cc(Br)ccc1OC (centres undefined)	0.4	nt	6	1%	-3
CCCC(C)C1(CC)C(=O)NC(=Nc2ccccc2)NC1=O (centres undefined)	2.4	0	-2	-4%	-6
Cc1cc(OCc2ccccc2)ccc1/C(O)=C1/C(=O)C(=O)N(Cc2cccnc2)C1c1ccncc1 (centres undefined)	1.5	nt	nt	-10%	-9
COC(=O)C(C)Oc1cc(OC(C)C(=O)OC)c2c(-c3ccccc3)cc(=O)oc2c1 (centres undefined)	-1.0	nt	nt	nt	94
CCCN1CCC(=O)N([C@H](CO)Cc2ccccc2)CC1	-3.1	nt	nt	nt	-3
O=C(CSc1nc(-c2ccccc2)nc2c1Cc1ccccc1O2)Nc1ccccc1	0.1	-53	-1	nt	2
CCCCc1cc(=O)oc2cc(OCC(=O)NCc3ccccn3)ccc12	1.0	nt	nt	nt	5
COc1cccc2[nH]c(=O)c(-c3ccccc3)cc12	0.6	nt	nt	nt	3
O=C(COc1ccc2ccccc2c1Br)N1CCN(c2ccccn2)CC1	-4.4	19	13	11%	-9
Cc1ccc(NC(=O)c2ccccc2)cc1-n1cnnn1	-1.6	nt	-9	-11%	1
COc1ccc(CCNC(=O)CN(c2ccc(OC)c(OC)c2)S(C)(=O)=O)cc1	3.9	-37	-4	-1%	-3
O=C(Nc1cccc([N+](=O)[O-])c1)c1ccc(CN2CCOCC2)cc1	-1.8	-34	-11	-3%	6
COc1ccccc1C(C)Nc1nc(-c2cccnc2)nc2ccccc12 (centres undefined)	13	nt	nt	nt	64
O=C(O)C(c1ccccc1)N1C(=O)/C(=C\c2ccc(-c3cccc(Cl)c3)o2)SC1=S (centres undefined)	23	nt	nt	nt	8
Cc1cc(NC(=O)Nc2ccccc2[N+](=O)[O-])no1	5.1	nt	-7	-2%	-4
COc1c(C)cc(C(=O)C2CCCN(Cc3c(C)n(C)n(-c4ccccc4)c3=O)C2)cc1C (centres undefined)	3.2	nt	-15	-1%	-5
CC(C)CC1NC(=O)N(CC(=O)Nc2ccccc2-c2ccccc2)C1=O (centres undefined)	0.7	nt	10	-3%	16
CCN(C(=O)CSc1nnc(-c2ccc(Cl)cc2)n1C)C1CCS(=O)(=O)C1 (centres undefined)	-1.9	nt	0	2%	2
O=C(CCc1nnc2ccc(N3CCCC3)nn12)Nc1cc(F)ccc1F	-3.1	nt	nt	nt	-4
CC1CC1C(=O)Nc1nc2ccc(Cl)cc2s1 (centres undefined)	-0.8	nt	nt	nt	3
COc1ccc(OC)c(S(=O)(=O)n2cccn2)c1	-0.4	-13	4	-10%	2
O=C(CNc1cccc2ccccc12)N/N=C/C(Br)=C/c1ccccc1	3.6	27	-12	79%	-5
CC(C)N(C(=O)CSc1nc(COc2ccccc2)nc2ccccc12)C(C)C	16	nt	-14	10%	-5
COc1ccccc1C(=O)NC(=O)Nc1c(C)cc(C)cc1C	2.0	nt	nt	nt	7
CC(C)=N/N=C(/c1ccc([N+](=O)[O-])cc1)C12CN3CN(CN(C3)C1)C2	2.0	nt	6	-4%	2
Cc1ccc(-n2c(O)c(C=Nc3ccc(S(=O)(=O)Nc4ncccn4)cc3)c3ccccc3c2=O)cc1C	-4.0	nt	-11	12%	17
Cc1ccc(C2(C)NC(=O)N(CC(=O)NNC(=O)c3cc(C)oc3C)C2=O)cc1 (centres undefined)	1.1	nt	nt	nt	-2
O=C(CN1C(=O)/C(=C/c2cccc(Br)c2)SC1=S)NC1=NCCS1	0.1	nt	0	1%	-1
CCOC(=O)N1CCN(CC(=O)Nc2ccc(F)c(F)c2F)CC1	-1.3	nt	5	-7%	-6
COc1ccc(C(C)(C)C)cc1NC(=O)Cn1cnnn1	4.7	nt	4	2%	-4
COCCN1C(=O)C(=O)/C(=C(/O)c2ccc(S(=O)(=O)N3CCCCC3)cc2)C1c1ccc(OC)c(OC)c1 (centres undefined)	-1.3	nt	nt	nt	?
COc1ccc(CCNC(=O)c2ccccc2NC(=O)c2ccco2)cc1OC	-0.8	-15	4	-9%	-1
CCc1ccc2c(c1)cc(CN(C(=S)Nc1ccccc1C)C1CC1)c1nnnn12	0.0	-27	-8	-4%	3
O=C(CN1CCC(n2nnc3ccccc32)CC1)Nc1ccc2c(c1)CCC2	2.0	-27	-18	-6%	82
CCOC(=O)CSc1nc2c(c(=O)n1-c1ccc(OCC)cc1)SCC2	-0.6	-8	3	-20%	-1
O=c1c2c3c(sc2n(CCN2CCCC2)c(=O)n1Cc1ccccc1)CCCCC3	3.2	nt	nt	43%	81
COc1ccc(CCNC(=O)Cn2nc(C(=O)O)c3ccccc3c2=O)cc1OC	-1.7	nt	8	4%	4
O=C(O)c1ccc(Cn2cc(C(F)(F)F)ccc2=O)cc1	-1.3	nt	6	-6%	4
C/C=C/C(=O)Nc1ccccc1Br	-0.1	9	-6	-2%	-5
OC1COC(OCC2OC(OCc3ccccc3)C(O)C(O)C2O)C(O)C1O (centres undefined)	-6.0	nt	2	9%	-4
O=C(NCc1ccc2c(c1)OCO2)c1ccc2c(c1)C(=O)N(Cc1cccnc1)C2=O	-2.1	-16	1	-4%	-3
Cc1ccc(S(=O)(=O)N2CCN(S(=O)(=O)N3CCCCC3)CC2)c(C)c1	2.2	-19	-4	-2%	4
COc1ccccc1C(=O)NCCn1cc(SCC(=O)NCC2CCCO2)c2ccccc21 (centres undefined)	-4.0	nt	nt	nt	-7
Cc1ccc2[nH]c3c(=O)n(CCCN4CCOCC4)cnc3c2c1	1.6	-3	6	-2%	-13
CCN(CC(=O)NCc1cccs1)C(=O)c1ccc(S(=O)(=O)Nc2ccccc2C)cc1	1.5	nt	nt	nt	-7
Cc1nc(/C(N)=N/OC(=O)c2cccc(Cl)c2)c(C(F)(F)F)o1	14	nt	nt	-9%	-2
O=C1OC(Nc2ccc3c(c2)OCO3)c2ccccc21 (centres undefined)	0.0	-53	-1	9%	34
CC(C)CCOc1ccc(-c2c(=O)n(OCc3ccc([N+](=O)[O-])cc3)c3ccccc3[n+]2[O-])cc1	14	-21	-14	0%	-6
Cc1nc(C(=O)Nc2cccc(Cl)c2Cl)nn1-c1cc(OC(C)C)c(Cl)cc1Cl	-0.1	-36	9	nt	14
CCOc1ccc(N2C=Nc3ccc(OCC)cc3C2)cc1	3.5	nt	nt	nt	96
Cc1ccc(S(=O)(=O)N(Cc2ccccc2)c2ccccc2C(=O)N2CCCCC2)cc1	9.5	nt	nt	nt	0
COc1ccccc1C1CCCN1Cc1nc(-c2ccc(C)s2)oc1C (centres undefined)	1.9	nt	14	-5%	-4
O=C(Cn1cnc2ccccc2c1=O)N1CCN(c2ccc(F)cc2)CC1	-2.6	nt	2	-9%	-10
Next part.
SMILES	RecA splice inh	YopH PTP inh	Arbovirus anti	Mtb H37Rv	Mtb bLac sens	others
COc1cc(/C=C(\C#N)C(=O)N2CCc3ccccc32)ccc1O	13	nt	nt	-4%	-7
O=C(Nc1ccccc1C(=O)NC1CCCCC1)c1ccccc1	0.5	nt	nt	nt	-6
Cc1cccc(NC(=O)c2cnc3scc(C)n3c2=O)c1	2.0	-43	-2	4%	10
Cc1ccc([C@@H]2C[C@H]3CN(Cc4cccc(Cl)c4)C(=O)[C@]34CCCN24)o1	4.7	nt	-5	-3%	-5
Cc1ccc(N2CC(C(=O)N3CCOCC3)CC2=O)cc1C (centres undefined)	3.1	nt	nt	nt	5
Cc1ccc2c(Cl)c(C(=O)Nc3nn[nH]n3)sc2c1	2.4	nt	-2	-6%	-2
Oc1c(Br)cc(Br)c(/C=N/n2c(-c3ccccc3)n[nH]c2=S)c1Br	8.4	nt	nt	nt	14
COc1ccc(CCn2nnc(-c3ccc(NC(C)=O)c(Cl)c3)n2)cc1	-1.0	-10	4	-8%	4
Cc1ccc(C(=O)NCCCN2CCOCC2)c(Cl)c1	0.6	nt	nt	nt	5
FC(F)(F)c1cccc(-c2nn[nH]n2)c1	2.8	nt	1	-6%	-3
COc1ccc(N(CC(=O)N2CCCCCC2)S(=O)(=O)c2ccccc2[N+](=O)[O-])c(OC)c1	0.6	nt	nt	nt	-1
CCCC12CN3CC(CCC)(CN(C1)C3c1ccccn1)C2=O (centres undefined)	-1.0	-7	-5	?	90
CC(NC(=O)Nc1ccc(Cl)cc1)C1CCCO1 (centres undefined)	3.9	nt	4	0%	6
O=C(Nc1ccccc1)Nc1c(F)cccc1F	4.5	nt	-4	0%	-3
Cn1c(SCC(=O)N2CCN(c3ccccc3)CC2)nnc1-c1ccccc1	2.1	-20	3	6%	-10
CS(=O)(=O)N(CC(=O)N1CCN(c2ccc(F)cc2)CC1)c1ccc(F)c(Cl)c1	0.3	-10	13	3%	-7
C[n+]1ccc(C(=O)Nc2ccccc2Cl)cc1	1.0	nt	nt	nt	-2
CCCS(=O)(=O)NCCc1cc2ccc(OC)cc2[nH]c1=O	nt	-42	-1	-4%	-2	Arbovirus anti repeat=4
CCCCNC(=O)C1CC(=O)N(CCc2ccccc2)C1 (centres undefined)	-2.7	nt	1	6%	-7
COc1ccc(/C=N/NC(=O)c2ccn[nH]2)cc1Cn1cc([N+](=O)[O-])cn1	0.1	nt	nt	1%	-16
CC(=O)c1sc(NC(=O)CN2C(=O)CCC2=O)nc1C	-0.3	4	nt	0%	-7
